MT1-MMP act inh = blockers of MT1-MMP proenzyme processing, primary screen, HT1080 RFP-PRO-GFP cells, GFP/RFP fluorescence. Matrix metalloproteinase-14 (Homo sapiens), P50281. GFP/RFP ratio fluorescence, overnight; percent of plate control window, DMSO zero. GFP/RFP ratio change, % at 20 µM. 0.061% of 360,000 active. AID 651647, 2012;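 active means GFP/RFP ratio change of at least 30% with cell ATP level not reduced by more than half and red fluorescence within 50% of control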; further: strong numbers were not always called active
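Material: RFP-PRO-GFP reporter HT1080 cells. Dosing: single-point 20 µM compound, 1% DMSO. Controls: DMSO and RFP-L50D-GFP cell wells. Timing: cells overnight before dosing, compound overnight, 37 °C, 5% CO2. Measure: GFP/RFP fluorescence ratio.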
eIF4H FP inh = human eIF4H binding inhibitors, primary screen, translation initiation inhibitor project, biochemical, uHTS, fluorescence polarization | inhibition, % at 35 µM | 0.94% of 290,000 active | eIF4H fluorescence polarization binding assay;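 active means 50% or more with normal probe brightness, or confirmed in later tests; inconclusive means above 50% with abnormal brightness, or retests that disagree; inactive means below 50% or failed in later tests; about a fifth of its hits are not listed in these tables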;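 further: calls also rest on retests at 20 µM and on dose response follow-up; 0% = protein and probe with vehicle and 100% = probe without protein; strong numbers were not always called active; many hits fall short of the cut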
Env fusion inh = inhibitors of HIV-1 Env-driven cell-cell fusion, primary screen, HeLa-JRFL effector, CEM21 target cells, luciferase; inhibition, % at 12.3 µM; 1.1% of 360,000 active;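 active means mean replicate inhibition score of at least 50 and every replicate individually at or above 50; inconclusive means only one of the two criteria met; inactive means mean below 50 and not all replicates reaching 50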;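 further: 0% = plate neutral controls and 100% = maraviroc near 300 nM; one replicate is shown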
PABP FP inh = PABP poly(A) RNA binding inhibitors, primary screen, biochemical, fluorescence polarization, uHTS; Polyadenylate-binding protein 1 (Homo sapiens), P11940; inhibition, % at 35 µM; 1% of 290,000 active;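 active means 50% or more with normal probe brightness, or confirmed in later tests; inconclusive means above 50% with abnormal brightness, or retests that disagree; inactive means below 50% or failed in later tests; about a fifth of its hits are not listed in these tables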;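 further: calls also rest on retests at 20 µM and on dose response follow-up; controls were probe without protein and protein plus probe with vehicle; some compounds called inactive have numbers as strong as hits; many hits fall short of the cut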
Target sequence (P11940 whole entry, looked up): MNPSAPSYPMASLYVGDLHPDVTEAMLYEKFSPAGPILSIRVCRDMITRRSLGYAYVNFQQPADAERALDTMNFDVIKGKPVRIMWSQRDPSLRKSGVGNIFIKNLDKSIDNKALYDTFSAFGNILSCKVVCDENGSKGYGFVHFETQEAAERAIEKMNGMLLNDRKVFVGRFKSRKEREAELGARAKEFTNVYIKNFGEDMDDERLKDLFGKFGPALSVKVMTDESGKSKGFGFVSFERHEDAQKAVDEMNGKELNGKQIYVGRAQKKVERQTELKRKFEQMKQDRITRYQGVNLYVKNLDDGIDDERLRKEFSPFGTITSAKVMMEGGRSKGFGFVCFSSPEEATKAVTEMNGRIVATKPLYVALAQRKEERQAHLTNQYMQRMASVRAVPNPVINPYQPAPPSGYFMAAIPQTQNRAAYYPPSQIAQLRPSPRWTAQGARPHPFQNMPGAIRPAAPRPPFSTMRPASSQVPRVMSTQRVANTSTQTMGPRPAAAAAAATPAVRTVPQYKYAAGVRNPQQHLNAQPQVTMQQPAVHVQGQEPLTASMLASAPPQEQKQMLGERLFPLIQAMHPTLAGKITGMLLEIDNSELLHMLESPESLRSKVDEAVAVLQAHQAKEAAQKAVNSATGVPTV
CSC inhib = cancer stem cell viability inhibitors, primary screen, luminescence | cancer stem cell-like cells viability | inhibition, % at 7.5 µM | 1.1% of 300,000 active;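 active means mean at 75% or more and at least half the replicates too; inconclusive means mean and replicates disagree; tested in HMLE shEcad cells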;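 further: 0% = median of negative and 100% = median of positive control wells; the first replicate is given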
UUG fidelity = modulators of yeast start codon fidelity, primary screen, whole organism, S. cerevisiae, single point, plate reader; S. cerevisiae UUG-firefly luciferase reporter, luminescence/redox ratio; activity score, % at 18.7 µM; 0.13% of 350,000 active;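 active means replicate mean at a twofold rise or more, about +100% in these data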;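 further: firefly luciferase made from a UUG start codon reports start codon fidelity; reporter light over untreated wells divided by growth signal over untreated wells; some hits fall short of that in this replicate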
Rce1 inhib = yeast Rce1p protease inhibitors, primary screen, biochemical, fluorescence, cell-free homogeneous; CAAX prenyl protease 2 (Saccharomyces cerevisiae (strain ATCC 204508 / S288c)), Q03530; yeast membranes, quenched prenylated peptide cleavage fluorescence; calls only; 0.27% of 290,000 active; AID 2563, 2010;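 active means fall in fluorescence gain of 50% or more versus controls, with final raw signal at or below 3038400; inconclusive means same 50% fall but final raw signal above 3038400; inactive means fall in fluorescence gain under 50%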;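 further: plate controls were neutral control wells for no effect and wells lacking membranes for full effect; tested at 10 µM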
Target sequence (Q03530 whole entry, looked up): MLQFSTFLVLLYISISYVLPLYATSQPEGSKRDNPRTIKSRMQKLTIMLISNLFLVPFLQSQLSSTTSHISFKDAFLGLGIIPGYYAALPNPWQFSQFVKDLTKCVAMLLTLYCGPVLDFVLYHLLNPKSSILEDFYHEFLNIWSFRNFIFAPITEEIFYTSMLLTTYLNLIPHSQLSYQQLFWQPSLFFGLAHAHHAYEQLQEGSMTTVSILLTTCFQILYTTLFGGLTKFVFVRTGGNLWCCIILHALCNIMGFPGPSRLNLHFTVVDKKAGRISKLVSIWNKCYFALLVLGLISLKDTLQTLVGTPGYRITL
eIF4H FP inh retest = also measured in eIF4H FP inh; calls as there; inhibition, %; compound at 20 µM; confirmation average;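 mean of two retest wells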
PABP FP inh retest = second read-out of PABP FP inh, no call of its own (marks repeat the call); inhibition, %; compound at 20 µM; confirmation repeats;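 mean of two retest wells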
MT1-MMP act inh RFP = also measured in MT1-MMP act inh; calls as there; RFP signal change, %; measured here: RFP expression control read;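 0 = vehicle wells; hits needed this value within 50% of zero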
Active calls of the source: *; i = inactive; ? = inconclusive; nt = no result given; + = active, no number.

SMILES | MT1-MMP act inh | MT1-MMP act inh RFP | eIF4H FP inh | Env fusion inh | PABP FP inh | CSC inhib | UUG fidelity | Rce1 inhib | others
O=C(O)CSCC(=O)Nc1ccc(C(F)(F)F)cc1 | -1 | 0 | 1 | 14 | 8 | -14 | nt | i
Cc1cc(NC(=O)CN2C(=O)CCSc3ccccc32)no1 | 2 | 6 | -12 | -4 | -7 | -8 | nt | i
Cc1cc2c(cc1S(=O)(=O)N1CCCCC1)OCC(=O)N2 | 1 | 2 | 10 | 2 | -10 | -14 | -8 | i
CN(C)C(=O)N1CCCC(C(=O)NCc2ccc(F)cc2Cl)C1 (stereo not given) | 3 | 0 | 7 | nt | 1 | -6 | -8 | i
COCCN1Cc2cccc(C(=O)NC(C)c3cccs3)c2C1=O (stereo not given) | -3 | 2 | 5 | 3 | 3 | -14 | -4 | i
Cn1ccnc1SCC(=O)Nc1ccccc1 | -1 | 4 | -2 | nt | 6 | 9 | -11 | nt
CC(OC(=O)c1cc(S(=O)(=O)N2CCOCC2)ccc1F)C(=O)NCC1CCCCC1 (stereo not given) | 6 | 0 | nt | -10 | nt | -17 | 6 | nt
Cc1ccc(C(=O)c2ncc[nH]2)cc1 | -1 | 2 | nt | -21 | nt | -11 | -11 | i
CCN1CCN(S(=O)(=O)Cc2ccccc2)CC1 | 3 | 5 | 2 | -26 | 5 | -19 | 0 | i
Cc1ccc(NC(=O)C(=O)NCC2CCN(C(=O)c3cccc([N+](=O)[O-])c3)CC2)cc1 | 1 | -6 | 6 | 24 | 3 | -2 | nt | i

The list goes on; it opens with the two that closed the last part.
SMILES | MT1-MMP act inh | MT1-MMP act inh RFP | eIF4H FP inh | Env fusion inh | PABP FP inh | CSC inhib | UUG fidelity | Rce1 inhib | others
CCN1CCN(S(=O)(=O)Cc2ccccc2)CC1 | 3 | 5 | 2 | -26 | 5 | -19 | 0 | i
Cc1ccc(NC(=O)C(=O)NCC2CCN(C(=O)c3cccc([N+](=O)[O-])c3)CC2)cc1 | 1 | -6 | 6 | 24 | 3 | -2 | nt | i
CCOC(=O)c1nn(-c2ccccc2C)c(=O)cc1OCC(=O)Nc1cccc(OC)c1 | -1 | -4 | nt | 9 | nt | 12 | -17 | i
CCC(C)NC(=O)CNC(=O)c1nn(-c2ccc(OC)cc2OC)c(=O)c2ccccc12 (stereo not given) | -3 | -1 | 5 | -2 | 9 | 3 | -17 | i
CCOC(=O)C1CCN(C(=O)CCNS(=O)(=O)c2ccc3c(c2)CCN3C(=O)CC)CC1 | 1 | 2 | -3 | 1 | -4 | 16 | -9 | i
COc1ccc(-c2ccc3oc(-c4ccc(OC)cc4)c(-c4ccc(OC)cc4)c3c2)cc1 | 3 | -1 | nt | -4 | nt | 14 | -11 | +
COc1ccc(NC(=O)CC2Oc3ccccc3NC2=O)c(OC)c1 (stereo not given) | -5 | -2 | -15 | 26 | -6 | -9 | -9 | i
Cc1ccc(S(=O)(=O)NCCc2ccc(S(N)(=O)=O)cc2)cc1 | -5 | -2 | 0 | -42 | -5 | -12 | -9 | i
COc1cc2c(cc1OC)-c1c(OC)c(OC)cc3ccnc(c13)C2=O | 14 | 1 | 3 | 14 | 2 | 61 | -9 | i
CCCc1cc(=O)[nH]c(SCC(=O)N2CCN(c3ccccc3)CC2)n1 | 4 | 2 | -2 | nt | -5 | -5 | -12 | i
O=C(NC(=S)N1CCN(c2ccccn2)CC1)c1ccccc1 | 0 | 8 | -10 | -8 | 5 | -15 | -18 | i
CCNC(=O)NC1(C(=O)Nc2ccc3c(c2)CCC3)CCCCC1 | 1 | 3 | -8 | -8 | -6 | -6 | -4 | i
Cc1cncc(N2CCN(c3ccccn3)CC2)n1 | -1 | 3 | nt | 12 | nt | nt | -14 | nt
Cc1cc(C)c(C#N)c(SCc2cc3c(cc2Cl)OCO3)n1 | 1 | -1 | -1 | nt | -5 | -6 | nt | i
O=C(NCCCc1ccccc1)C1CCN(c2nnc(-n3cccc3)s2)CC1 | 2 | 1 | -2 | 10 | 0 | -11 | -20 | i
Cc1cc(C)cc(NC(=O)c2ccc(CNc3c(N4CCOCC4)c(=O)c3=O)cc2)c1 | -3 | -3 | 12 | 21 | -8 | -2 | -2 | i
Cc1ccc(C)c(CN2CCSCC2)c1 | -1 | 2 | 1 | -12 | 18 | -4 | -5 | i
CNC(=O)/C(C#N)=C1\SC(Cc2ccc(F)cc2)C(=O)N1c1ccccc1C (stereo not given) | -2 | 4 | -5 | 10 | 9 | 9 | -7 | i
CCOC(=O)c1cc(-c2ccccc2C)nn1Cc1cc(CC)no1 | 2 | -1 | nt | -14 | nt | 4 | -5 | nt
O=C(C1=C(O)C(=O)N(CCN2CCOCC2)C1c1ccc([N+](=O)[O-])cc1)c1cc2ccccc2o1 (stereo not given) | -3 | 3 | -16 | nt | 1 | 5 | -15 | i
COCCn1c(-c2ccco2)csc1=Nc1cccnc1 | 4 | 3 | 4 | nt | 17 | -4 | nt | i
Cc1ccc([N+](=O)[O-])cc1NC(=O)CCSc1ccc(Cl)cc1 | 5 | -2 | 1 | nt | -7 | 4 | -18 | i
O=C(CC1SC(=O)N(c2ccccc2)C1=O)Nc1cccc2ccccc12 (stereo not given) | 2 | 9 | -2 | -6 | -12 | -6 | -21 | i
O=C(NCc1ccco1)c1ccc(COc2ccc(Cl)cc2)cc1 | -4 | -3 | 1 | 2 | -4 | 6 | nt | i
Oc1ccccc1/C=N/N1CCCCC1 | -1 | 4 | 2 | 2 | -5 | 0 | nt | i
CCC1(CCC(C)C)SC(N)=NC1=O (stereo not given) | 0 | 2 | nt | -3 | nt | nt | -12 | nt
CCCOP(=O)(c1ccc(N(C)C)cc1)C(Nc1ccccc1)c1ccc(C)cc1 (stereo not given) | -6 | -15 | -13 | 51 | -2 | 14 | nt | i
COc1ccc(N/N=C2/CCCCC2=O)cc1 | 7 | -3 | 4 | nt | 12 | nt | 7 | i
COC(=O)N/N=C/C1=CCC2CC1C2(C)C (stereo not given) | 0 | 2 | 2 | 10 | -12 | -1 | -4 | i
NC(=O)c1nnsc1-c1ccco1 | -2 | -2 | nt | -19 | nt | nt | -4 | nt
CC(C)c1nc(CN2CCCCC2)cc(=O)[nH]1 | 0 | 5 | 10 | 21 | -3 | 22 | nt | i
COc1cc(C)ccc1S(=O)(=O)NC(=O)C1(C)CCN1C(=O)c1ccc(C2CCCCC2)cc1 (stereo not given) | 1 | 1 | nt | -8 | nt | nt | 6 | nt
O=c1c2c3c(sc2nc2n1N=C(c1cccs1)CS2)CCCC3 | 8 | 8 | -14 | nt | -5 | 5 | nt | i
CCN(CC)c1ccc(NC(=O)CSc2ccsc2[N+](=O)[O-])c(C)c1 | -5 | -6 | ? | -72 | 12* | 3 | nt | i | PABP FP inh retest=103*
Cc1ccc(-c2csc(=S)n2CC(=O)OCC(=O)NCc2ccc(F)cc2)cc1 | nt | nt | -8 | nt | -6 | -8 | nt | nt
CC(=O)c1cccc(NC(=O)COC(=O)Cn2cnc3ccccc32)c1 | 1 | -1 | nt | nt | nt | -16 | -41 | nt
COc1ccc(CCNC(=O)Nc2nc(C(N)CCc3ccccc3)cs2)cc1OC (stereo not given) | -1 | 2 | nt | ? | nt | nt | -5 | nt
COCC(=O)N1CCC(Oc2ccc(C(=O)NCc3csc(C(C)C)n3)cc2)CC1 | 2 | 0 | -2 | 15 | -11 | -2 | 5 | i
CSc1nc(N)nc(SCC(=O)C(C)(C)C)c1C#N | -1 | 1 | -4 | nt | -6 | -11 | -8 | i
CCCCCC(=O)NNC1=NCC(Cc2ccccc2)S1 (stereo not given) | 1 | 3 | 91 | 0 | -1 | 21 | nt | i | eIF4H FP inh retest=37;PABP FP inh retest=2
COc1cc(-c2nn3c(-c4cccnc4)nnc3s2)cc(OC)c1OC | 6 | -1 | -6 | -16 | -3 | 12 | -6 | i
CCCC1C2CN(C(C)=O)CC=C2C(C#N)=C(N)C1(C#N)C#N (stereo not given) | -41 | 3 | 6 | 28 | 14 | -13 | -15 | i
Cc1ccc(S(=O)(=O)N(CCCN(C)C)Cc2ccc3c(c2)OCO3)cc1 | -6 | 0 | -1 | -5 | 8 | 2 | -12 | i
COc1ccc(-c2nc3ccccc3n2Cc2ccc(C)cc2)cc1 | 3 | -10 | -15 | nt | -6 | -16 | nt | i
Cc1ccc(N(C(=O)Nc2ccccc2)C2=NCCC2)cc1 | -1 | -3 | 88* | -10 | 54* | 5 | -11 | i
COc1ccccc1CNC(=O)CCS(=O)(=O)c1ccc2c(c1)CC(C)N2C(=O)C1CC1 (stereo not given) | 1 | -1 | 1 | 10 | -4 | -3 | -15 | i
Cc1ccc(NC(=O)N[C@H](C(=O)O)C(C)C)c(C)c1 | 2 | 5 | -10 | 14 | -11 | -4 | -22 | i
Cc1cc(C)cc(OCC(=O)OCC(=O)NCCC2=CCCCC2)c1 | 2 | -2 | -2 | 3 | 13 | -9 | nt | i
O=C(O)CSCc1nc2ccccc2[nH]1 | -1 | 2 | -7 | -10 | -14 | 1 | -12 | i
Fc1cccc(Cc2c(-c3ccco3)nc3ccc(Br)cn23)c1 | -6 | -2 | nt | 7 | nt | nt | -5 | nt
CCc1ccc(CN2CCC(Oc3ccc(C(=O)NCc4ccccn4)cc3)CC2)o1 | -1 | 2 | 12 | -10 | -1 | 11 | -9 | i
CC(=O)Nc1ccc(NC(=O)C2CCN(S(=O)(=O)c3cccc4nonc34)CC2)cc1 | -1 | 2 | -3 | nt | -3 | -1 | -16 | i

(listing goes on)
SMILES | MT1-MMP act inh | MT1-MMP act inh RFP | eIF4H FP inh | Env fusion inh | PABP FP inh | CSC inhib | UUG fidelity | Rce1 inhib | others
COc1ccc(OC)c(S(=O)(=O)Oc2ccc(N)c3ccccc23)c1 | 9 | 8 | nt | -53 | nt | 30 | -8 | i
CCn1c(SCC(=O)O)nnc1-c1cccnc1 | -11 | -4 | -3 | 9 | -3 | -13 | -6 | i
CC(C)c1cccc(C(C)C)c1OC(=O)[C@H]1OC(C(C)(C)C)=C[C@@H]1c1ccccc1 | 6 | -7 | nt | 13 | nt | 21 | 22 | nt
N#CCS(=O)(=O)c1ccccc1 | 5 | 6 | -9 | -24 | -2 | -14 | -16 | i
O=P(c1ccccc1)(c1ccccc1)C(O)c1cccs1 (stereo not given) | -3 | 2 | nt | -8 | nt | nt | 3 | nt
CC(=O)C1=C(c2ccccc2)OC(N)=C(C#N)C1c1ccccc1C (stereo not given) | -1 | 2 | -2 | -6 | 3 | 20 | nt | i
COc1ccccc1C(=O)Nc1cc(C)ccc1NC(=O)c1ccco1 | -5 | -2 | -8 | -53 | -4 | -5 | -9 | i
Cc1ccc(OCC(O)CNS(=O)(=O)c2ccccc2C(=O)N2CCCCC2)cc1 (stereo not given) | 4 | 0 | 3 | 12 | 5 | -9 | -7 | i
COc1ccc(NS(=O)(=O)c2ccc(F)c(Cl)c2)cn1 | -13 | 8 | ? | -9 | ? | -11 | -24 | i
C/C(=N\NC(=O)c1ccn(C)n1)c1ccco1 | -1 | 0 | -3 | -52 | -7 | -7 | nt | i

From PubChem

This is a subset, so the mix of outcomes need not match the whole.
